AmpC nodet inh: blocks E. coli AmpC beta-lactamase in absence of detergent. AmpC nitrocefin hydrolysis, absorbance 480 nm, no detergent; potencies from a single point are estimates. Potency, µM (titrated, usually from 28.7 µM), for the others: top-dose activity change, negative = inhibition. hit rate 1.8% among 71,000. AID 585; active = falling curve, for most hits resting on a single point; inconclusive = weak or doubtful change; inactive = flat or rising curve; note: % of control where 0% means no effect; about half of the hits show no inhibition at the top dose; a quarter of the inactives give rising signals
Target sequence (P00811 whole entry, looked up): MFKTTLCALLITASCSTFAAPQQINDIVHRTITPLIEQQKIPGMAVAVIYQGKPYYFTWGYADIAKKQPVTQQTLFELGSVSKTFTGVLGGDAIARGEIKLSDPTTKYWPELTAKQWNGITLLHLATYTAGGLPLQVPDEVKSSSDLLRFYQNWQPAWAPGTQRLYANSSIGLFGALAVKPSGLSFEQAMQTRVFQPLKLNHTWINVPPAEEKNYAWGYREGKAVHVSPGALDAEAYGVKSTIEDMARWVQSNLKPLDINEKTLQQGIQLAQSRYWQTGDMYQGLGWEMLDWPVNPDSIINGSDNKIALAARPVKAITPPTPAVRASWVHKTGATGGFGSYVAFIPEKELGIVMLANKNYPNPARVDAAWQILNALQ
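Enzyme, pH 7.0 phosphate. Compound titrations were pre-incubated with AmpC for 15 min at room temperature before nitrocefin (stock 800 uM) addition; product formation was recorded at 480 nm every 20 s for 4 min.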
Active calls of the source: *; & = joins results of further samples; [ ] = dose if it differs, or a comment. Potency is the fitted concentration of half-maximal effect. A portion of the library (hit frequency here may not be typical).

SMILES	AmpC nodet inh
Cc1ccc(S(=O)(=O)Nc2ccccc2F)cc1C(=O)NCCCN1CCCC1=O	3%
COc1cccc(C(C(=O)NC(C)(C)C)N(C(=O)CCC(=O)Nc2cc(C)on2)C(C)C)c1OC (stereo not drawn)	81%
Cc1ccc(C2CC(=O)c3cnc(N4CC(C)CC(C)C4)nc3C2)cc1 (stereo not drawn)	17%
OCCc1ccc(-c2ccc(Cl)cc2)o1	0%
COc1ccc(S(=O)(=O)Cc2ccc(C(=O)NCc3ccccn3)o2)cc1	4µM*[single pt active]
COc1ccc(Cl)cc1C(=O)Nn1c(C)nc2ccccc2c1=O	20%
Cc1cc(C)c2nc(N3CCCN(C(=O)c4ccco4)CC3)c(C#N)cc2c1	93%
CCc1cccc2nc3c(c([Si](CC)(CC)CC)c12)Cn1c-3cccc1=O	108%
Cc1onc(-c2ccccc2Cl)c1C(=O)NCCCN1CCOCC1	1%
CC[C@@H](Nc1ncnc2nc[nH]c12)C(=O)O	-2%[5.75 µM]
O=C1NCN(c2ccccc2)C12CCN(c1nnnn1-c1ccccc1)CC2	84%
Cc1ccccc1OCC(=O)N(Cc1nc(-c2ccccc2)no1)C(C)C	45%
COCCNC(=O)c1ccc(CS(=O)(=O)c2ccc(OC)cc2)o1	4µM*[single pt active]
CN1C(=O)OC2(C)CCc3ccccc3C12C (stereo not drawn)	8%
CCOC(=O)c1csc(Nc2nc3ccc(F)cc3s2)n1	37%
COC(=O)c1ccccc1NC(=O)c1c(O)c2c([nH]c1=O)CCCC2	12%
COc1cc(C)c(-c2cc(C(=O)O)c(C)o2)cc1C(C)C	-6%
CCS(=O)(=O)N1CCN(C2CCC(c3ccccc3)CC2)CC1 (stereo not drawn)	70%
Cc1cc2oc(=O)cc(COC(=O)Cn3cnnn3)c2cc1C(C)C	56%
CCN(CC)C(=O)N[C@H]1C=C2c3cccc4[nH]cc(c34)C[C@@H]2N(C)C1	18%[12.8 µM]

Some of the entries so far, as comma-separated lines.
Structure,AmpC nodet inh
COc1cc(C)c(-c2cc(C(=O)O)c(C)o2)cc1C(C)C,-6%
CCOC(=O)c1csc(Nc2nc3ccc(F)cc3s2)n1,37%
Cc1ccc(C2CC(=O)c3cnc(N4CC(C)CC(C)C4)nc3C2)cc1 (stereo not drawn),17%
Cc1cc(C)c2nc(N3CCCN(C(=O)c4ccco4)CC3)c(C#N)cc2c1,93%
COc1ccc(Cl)cc1C(=O)Nn1c(C)nc2ccccc2c1=O,20%

Back to the main list with the 2 entries that preceded the break.
SMILES	AmpC nodet inh
Cc1cc2oc(=O)cc(COC(=O)Cn3cnnn3)c2cc1C(C)C	56%
CCN(CC)C(=O)N[C@H]1C=C2c3cccc4[nH]cc(c34)C[C@@H]2N(C)C1	18%[12.8 µM]
O=C(CSCc1ccco1)Nc1cc(C(F)(F)F)ccc1N1CCOCC1	38%
Cc1cccc(-n2c(Cc3cc(=O)[nH]c(=O)[nH]3)nnc2SC(C)C)c1	10%
COc1ccc(C(c2sc3nc(C)nn3c2O)N2CCC(C(N)=O)CC2)cc1OC (stereo not drawn)	10%
O=C1c2ccc(Oc3ccc4c(c3)C(=O)N(CCCO)C4=O)cc2C(=O)N1CCCO	66%
O=C(NCC1COc2ccccc2O1)c1ccc(NC(=O)c2ccco2)cc1 (stereo not drawn)	-19%
COc1ccc(Cl)cc1N1C(=O)C2CCCN2C1c1ccc(F)c(F)c1 (stereo not drawn)	38%
O=[N+]([O-])c1cc(Cl)c(Cl)c(Cl)c1Cl	-17%
CCc1cc(C(=O)c2ccccc2OC)c(N)s1	4%
N=c1sccn1CC(=O)Nc1cccc(Oc2ccccc2)c1	15%
CCOC(=O)C1Cn2c(nc3c(c2=O)C(C)(CC)Cc2ccccc2-3)S1 (stereo not drawn)	94%
O=C(OCC(=O)c1cccs1)c1ccccc1	-5%
CCOC(=O)N1CCN(C(=O)CN(c2ccc(Oc3ccccc3)cc2)S(C)(=O)=O)CC1	124%
CC1=C(C(=O)OCc2ccccc2)C(C2CC2)NC(=O)N1CCCCCC(=O)O (stereo not drawn)	6%
O=C(C1CCCO1)N1CCN(C(c2ccccc2)c2ccccc2)CC1 (stereo not drawn)	116%
CC1(C)Oc2ccc(NC(=O)C3COc4ccccc4O3)cc2O1 (stereo not drawn)	12%
COc1ccc(CCNC(=O)CSc2nnc(CNc3ccc(Cl)cc3)o2)cc1OC	65%
Cc1[nH]c2ccccc2c1C(=O)CN1CCSCC1	9%
COCCNS(=O)(=O)c1cc(OC)c(Cl)cc1Cl	3%
CCOC(=O)C1=C(C)NC(C)=C(C(=O)OCC)C1c1ccccn1	44%
O=C(NC12CC3CC(CC(C3)C1)C2)c1ccc(S(=O)(=O)N2CCOCC2)cc1	31%
CCOC(=O)COn1c(=O)c(=O)n(O)c2ccccc21	-4%
O=C(Nc1cccnc1)c1c(F)c(F)c(F)c(F)c1F	0%
COc1cc(C2C(C#N)=C(N)Oc3cc(N(C)C)ccc32)cc2c1OCO2 (stereo not drawn)	12%
COc1ccc(CN(Cc2ccccn2)S(=O)(=O)c2ccc(-n3cnnn3)cc2)cc1	86%
Cc1cc(C)cc(NC2=NC3(CCCCC3)N=C(N)N2)c1	-12%
COC(=O)c1ccccc1S(=O)(=O)Nc1ccc(OC)nc1	0%
Cc1ccc(S(=O)(=O)N2CCC(C(=O)N3CCN(Cc4ccccc4)CC3)CC2)cc1	154%
O=c1[nH]c(CSc2nnc(COc3ccccc3)n2-c2ccccc2)nc2ccccc12	9%
COc1cc(NC(=O)c2noc3c2CCC3)c(OC)cc1Cl	34%
Cc1c(C(=O)NCC2COc3ccccc3O2)oc2ccc(S(=O)(=O)N3CCOCC3)cc12 (stereo not drawn)	88%
Cc1cccc(-n2c(SCc3cc(=O)n4ccsc4n3)nc3ccccc32)c1	99%
COCCn1c(=O)c(-c2ccc(Cl)cc2)nc2cnc(N3CCNCC3)nc21	64%
CCCc1cc(C(=O)OC)c(NC(=O)OCC)s1	5%
Nc1ccc2c(c1)-c1ccccc1S(=O)(=O)N2	-22%
Cc1nc2cc(-c3cccc(F)c3)nn2c(C)c1CCC(=O)NC(C)CCc1ccco1 (stereo not drawn)	130%
O=C(Nc1ccon1)c1ccc(Cl)s1	-3%
Clc1cccc2sc(N3CCN(c4ccccc4)CC3)nc12	-10%
NC(=O)C1CCN(C(=O)CN(c2cccc(C(F)(F)F)c2)S(=O)(=O)c2ccccc2)CC1	112%
OC1(c2ccccc2F)CC2CCC(C1)N2CCN1CCOCC1 (stereo not drawn)	-7%
CS(=O)(=O)c1cccc(C(=O)NCc2ccccc2)c1	-23%
CC1(C)Cc2c(c(N3CCOCC3)nc3sc(-c4ccc(C(=O)O)o4)c(N)c23)CO1	-2%
COc1ccc(N2C(=O)CC(NC3CC3)C2=O)cc1 (stereo not drawn)	7%
O=C(Nc1ccccc1N1CCCCC1)c1ccc2nccnc2c1	95%
CCc1ccc2c(CN(CC)Cc3nc4ccccc4c(=O)[nH]3)cc(=O)oc2c1	41%
NC(=NCCCCCCN=C(N)/N=C(\N)Nc1ccc(Cl)cc1)/N=C(\N)Nc1ccc(Cl)cc1	2.5µM*
CC(C)n1c(=N)c(C(=O)NCCc2ccccc2)cc2c(=O)n3ccccc3nc21	30%
Cc1ccc(NS(=O)(=O)c2ccc(CCC(=O)O)cc2)cc1	7%
CCOC(=O)N1CCN(C(=O)c2ccc(C)c(S(=O)(=O)Nc3ccccc3)c2)CC1	29%
CCc1nnc(NC(=O)CCN2C(=O)c3ccccc3C2=O)s1	-7%
C=CCN=C1SC(C)C(=O)N1S(=O)(=O)c1ccccc1 (stereo not drawn)	0%
O=C(NCc1ccncc1)/C(=N/O)c1ccccc1	-6%
CN(C)C1(c2nnnn2CCOC(=O)Nc2ccc(Cl)cc2)CCCCC1	22%
CCC(C)N1CC23C=CC(O2)C(C(=O)OCc2ccccc2)C3C1=O (stereo not drawn)	14%
O=C(COC(=O)c1ccc(Cl)c(S(=O)(=O)N2CCCC2)c1)NC1CCCC1	39%
CCOC(=O)Nc1ccc(S(=O)(=O)Nc2cc(C)on2)cc1	-3%
Cc1sc2nc(SCC(=O)NCc3cccs3)[nH]c(=O)c2c1C	-10%
CNC(=O)OCc1cccc(COC(=O)NC)n1	-16%
CC(C)CCn1c(N2CCN(c3cccc(Cl)c3)CC2)nc2c1c(=O)[nH]c(=O)n2C	-6%
COC(=O)CSc1nnc(-c2ccc(S(=O)(=O)N3CCCCC3)cc2)o1	28%
CCOc1ccccc1NC(=O)Nc1cc(OC)ccc1OC	-17%

Later entries:
SMILES	AmpC nodet inh
Cc1cccc(/N=C/c2c(O)[nH]c3ccccc23)n1	49%
COc1ccccc1NC(=O)C1C2C=CC(O2)C1C(=O)O (stereo not drawn)	-5%
CCOc1ccc(N2CC(C(=O)Oc3ccccc3)CC2=O)cc1 (stereo not drawn)	27%
COC(=O)c1ccccc1NC(=O)C1CCCN(c2nnc(-n3cccc3)s2)C1 (stereo not drawn)	84%
Cc1ccc(NC(=O)c2cnn(-c3ccccc3)c2NC(=O)c2ccco2)cc1	6%
Cc1nn(-c2ccccc2)c2nc(=O)n(-c3ccccc3)cc12	-9%
COCCNC(=O)[C@H](C)[C@@H]1C[C@@]1(C)[C@@H](NC(=O)OCc1ccccc1)c1ccccc1	127%
CCOC(=O)c1c(N)sc(C(=O)N(C)C)c1C	10%
O=C(C1CCCN1S(=O)(=O)c1ccc(Cl)cc1)N1CCOCC1 (stereo not drawn)	11%
NCCNS(=O)(=O)c1cccc2cnccc12	-6%&-6%
CCCCn1c(CNC(=O)C(C)(C)C)nc2ccccc21	38%
CN1CCN(C(=O)c2cc(Cl)ccc2Cl)CC1	-1%
COc1ccc(N2CCN(C(=O)C34CCC(C)(C(=O)C3)C4(C)C)CC2)cc1 (stereo not drawn)	5%
C[C@@]12CCC(=O)C=C1CC[C@@H]1[C@@H]2[C@H](O)C[C@]2(C)[C@@H]1CC[C@]2(O)C(=O)CO	-4%[12.8 µM]
COc1ccc(COC2OC[C@]3(C)[C@H]4C5=C(CN3C(=O)OC(C)(C)C)[C@H](C)C(CO)C(CO)C5CC[C@@H]24)cc1 (stereo partly drawn)	140%
CC(C)(C)n1nnnc1CN(Cc1ccco1)Cc1cc2cc3c(cc2[nH]c1=O)OCO3	-12%
CCOC(=O)c1ccc(NC(=O)c2c(O)c3ccccc3n(C)c2=O)cc1	8%
Cc1c(Cl)c(S(N)(=O)=O)cc(S(N)(=O)=O)c1NC(=O)c1ccc(Cl)cc1	-2%[5.75 µM]
Cc1n[nH]c(C)c1S(=O)(=O)N1CCCC(C(=O)N2CCc3ccccc32)C1 (stereo not drawn)	40%
CCN(CC)c1ccc(NC(=O)CSc2nnc(N)s2)cc1C	-7%

In a second layout: entries from further up
NCCNS(=O)(=O)c1cccc2cnccc12
  AmpC nodet inh = -6%&-6%
CC(C)(C)n1nnnc1CN(Cc1ccco1)Cc1cc2cc3c(cc2[nH]c1=O)OCO3
  AmpC nodet inh = -12%
CCOC(=O)c1ccc(NC(=O)c2c(O)c3ccccc3n(C)c2=O)cc1
  AmpC nodet inh = 8%
CCCCn1c(CNC(=O)C(C)(C)C)nc2ccccc21
  AmpC nodet inh = 38%

Carrying on.
SMILES	AmpC nodet inh
O=C(c1csnn1)N1CCC2(CC1)CN(c1ncccn1)C2	8%
CCOc1ccc(Cn2nnc(C(=O)Nc3cc(OC)cc(OC)c3)c2N)cc1	3.2µM*
O=C(CCc1nc(-c2ccccc2F)no1)NC1CCCCC1	23%
Cn1c(=O)c2c(nc(SCCN3CCOCC3)n2Cc2ccc(F)cc2)n(C)c1=O	90%
COc1ccc(CNC(=O)CN(C(=O)CCC(=O)Nc2ccccn2)c2ccccc2OC)cc1	42%
COc1cccc(-c2nc(-c3ccccn3)no2)c1OC	15%
CN1CC[n+]2c(CN3C(=O)c4ccccc4C3=O)csc21	3%
Cc1ccccc1NC(=O)CN(c1ccc(F)cc1)S(C)(=O)=O	0%
CCN(CC)CCC[C@H](C)Nc1ccnc2cc(Cl)ccc12	-6%[12.8 µM]
c1ccc(-c2oc3ncnc(NCCCN4CCOCC4)c3c2-c2ccccc2)cc1	149%
O=C(c1cccc(C(=O)N2CCN(Cc3ccccc3)CC2)c1)N1CCN(Cc2ccccc2)CC1	124%
O=C(Nc1c2c(nn1-c1ccc(F)cc1)CS(=O)C2)C12CC3CC(CC(C3)C1)C2 (stereo not drawn)	51%
Cc1ccc(C(=O)Nc2ccccc2C(=O)NC2CCCCC2)cc1S(=O)(=O)N1CCOCC1	65%
O=C(O)Cc1cccnc1	-5%[5.75 µM]
CC12C(=O)N(n3cnnc3)C(=O)C1C1C=CC2C1 (stereo not drawn)	14%
Clc1nc(Cl)nc(Nc2ccccc2Cl)n1	-2%
CCOC(=O)C1CCCN(C(=O)CCn2nc(-c3ccccc3)ccc2=O)C1 (stereo not drawn)	39%
O=C(c1ccco1)N1C2C=CC(C2)C1(C(F)(F)F)C(F)(F)F (stereo not drawn)	5%
CCCn1c(SCCN2C(=O)c3ccccc3C2=O)n[nH]c1=O	-1%
O=C(O)CC(O)(CC(=O)O)C(=O)O	-6%

Structural class: the entries above with a tert-butyl group.
SMILES	AmpC nodet inh
COc1cccc(C(C(=O)NC(C)(C)C)N(C(=O)CCC(=O)Nc2cc(C)on2)C(C)C)c1OC (stereo not drawn)	81%
CCCCn1c(CNC(=O)C(C)(C)C)nc2ccccc21	38%
COc1ccc(COC2OC[C@]3(C)[C@H]4C5=C(CN3C(=O)OC(C)(C)C)[C@H](C)C(CO)C(CO)C5CC[C@@H]24)cc1 (stereo partly drawn)	140%
CC(C)(C)n1nnnc1CN(Cc1ccco1)Cc1cc2cc3c(cc2[nH]c1=O)OCO3	-12%

(continued)
SMILES	AmpC nodet inh
CCc1ccc(NC(=O)C2CCCCC2C(=O)O)cc1 (stereo not drawn)	-7%
O=C1CC(c2nc3ccccc3[nH]2)CN1c1ccccc1F (stereo not drawn)	-3%
Cc1ccc2cc3cc(C(=O)NCCN4CCOCC4)oc3nc2c1	39%
COc1ccc(C(c2nnnn2C2CCCCC2)N2CCN(c3ccccc3)CC2)cc1 (stereo not drawn)	35%

Compound activity: PubChem, National Center for Advancing Translational Sciences (NCATS)
